TRPML1 blocker – qHTS for Inhibitors of the Human Mucolipin Transient Receptor Potential 1 (TRPML1); Mucolipin-1 (Homo sapiens), Q9GZU1; TRPML1-inducible cells, Ca2+ dye fluorescence, FDSS; active compounds read low; inhibition of EC80 agonist-evoked calcium signal; activity change, negative = inhibition, % (concentration not given with the values); 390,000 tested, 0.02% active; AID 624415, 2012; in the data active means activity change below about -50%; inconclusive means about -30% to -50%; inactive means above about -30%;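 further: stimulus is agonist 54-4 at its EC80 concentration; on the % scale 0 is the no-effect control and ±100 the full control effect; the text of the record puts the active cut at -80%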
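TRPML1-DL cells, Tet-induced overnight (~16 h, 37 °C) at 1,500 cells/well, were loaded with Ca8 no-wash dye plus quencher for 45-90 min at room temperature. Compounds were pinned during FDSS kinetic reading; agonist 54-4 at EC80 (4 uM final) then added.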
ClpP mod – qHTS Assay for Activators of ClpP; ATP-dependent Clp protease proteolytic subunit (Bacillus subtilis (strain 168)), P80244; purified B. subtilis ClpP, FRET peptide cleavage, 20 min; Potency, µM (doses to about 57.5 µM), for inactives: top-dose activity change, negative = active; 340,000 tested, 1.9% active; active = well fitted falling curve with a large enough effect; inconclusive = small, poorly fitted or top-dose-only effect; inactive = no such curve, though single readings can be large or run the other way; further: potency means the concentration at half of the fitted maximal effect; the source files actives as falling curves though it sought activators and does not explain the sign; nearly all actives have a fitted effect of over 65% in size; many hits overshoot -100%
Target sequence (P80244 whole entry, looked up): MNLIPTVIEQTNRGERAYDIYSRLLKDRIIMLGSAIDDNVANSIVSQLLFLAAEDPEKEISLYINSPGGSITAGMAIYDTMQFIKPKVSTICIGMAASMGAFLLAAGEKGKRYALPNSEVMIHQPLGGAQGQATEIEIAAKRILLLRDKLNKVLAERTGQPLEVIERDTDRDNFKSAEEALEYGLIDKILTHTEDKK
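Purified B. subtilis ClpP, 10 microg/mL final in Tris/HCl pH8 with KCl, BSA, glycerol and Tween-20, cleaved an Abz/nitrotyrosine-quenched decapeptide. Fluorescence (ex 320, em 430) was read at 0 and 20 min at room temperature. Delta was normalized to 5.8 microM ADEP and DMSO/no-enzyme controls.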
Sfp PPTase inh – qHTS Assay for Inhibitors of Bacillus subtilis Sfp phosphopantetheinyl transferase (PPTase); 4'-phosphopantetheinyl transferase ffp (Bacillus subtilis), Q9F4F7; Biochemical Sfp PPTase activity, qHTS; Potency, µM, without a hit: max response, negative = inhibition, usual class: inhibitors; 310,000 tested, 3.5% active; active means well fitted inhibition curve with a large enough effect; inconclusive means small, poorly fitted or top-dose-only effect, or another doubt; inactive means no such curve, though single readings can be large or run the other way;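 further: the enzyme is Sfp with the accession as filed and its product quenches rhodamine fluorescence; potency means the concentration at half of the fitted maximal effect; 0% = enzyme reaction without inhibitor and -100% = no enzyme wells; top concentration of the series not given in the record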
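Fluorescence-quenching assay with 15 nM Sfp, 5 uM rhodamine-CoA and 12.5 uM BHQ-2-labelled ybbR peptide in pH 7.6 Hepes/MgCl2 buffer. Enzyme was pre-incubated with compound for 15 min at room temperature. Rate was taken from the 30-min fluorescence change (525/598 nm).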
PINK1 modulator – A Quantitative High throughput Screen to Identify Chemical Modulators of PINK1 Expression; PINK1 immunofluorescence, high-content cytometry, 24 h; Potency, µM (series often up to 76.6 µM), for inactives: at the highest dose activation (PINK1 increase), most hits filed as activators; 410,000 tested, 0.2% active; AID 624263, 2012; active = well fitted activation curve with a large enough effect; inconclusive = small, poorly fitted or top-dose-only effect; inactive = flat fitted curve, though single readings scatter; cell line not stated here;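 further: potency means the concentration at half of the fitted maximal effect; % of control where 0% means no effect; nearly all actives have a fitted effect of over 65% in size; a mitochondrial uncoupler was the plate control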
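PINK1 protein level read as immunofluorescence by microplate cytometer in a fixed, stained stable cell line after 24 h exposure to five compound concentrations, with CCCP as control.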
TRPV1 potentiator – HTS Assay for Compounds that Act as Potentiators of the Vanilloid Receptor 1; Transient receptor potential cation channel subfamily V member 1 (Homo sapiens), Q8NER1; TRPV1-expressing cells, Fluo-8 calcium influx, capsaicin EC20 potentiation; host cell line not named in the record; control for the full effect not named in the record; potentiation, % at 8.33 µM; 320,000 tested, 0.02% active; active means potentiation above 80%; inconclusive means 30% to 80%; inactive means below 30%; further: 0% is about no effect
Target sequence (Q8NER1 whole entry, looked up): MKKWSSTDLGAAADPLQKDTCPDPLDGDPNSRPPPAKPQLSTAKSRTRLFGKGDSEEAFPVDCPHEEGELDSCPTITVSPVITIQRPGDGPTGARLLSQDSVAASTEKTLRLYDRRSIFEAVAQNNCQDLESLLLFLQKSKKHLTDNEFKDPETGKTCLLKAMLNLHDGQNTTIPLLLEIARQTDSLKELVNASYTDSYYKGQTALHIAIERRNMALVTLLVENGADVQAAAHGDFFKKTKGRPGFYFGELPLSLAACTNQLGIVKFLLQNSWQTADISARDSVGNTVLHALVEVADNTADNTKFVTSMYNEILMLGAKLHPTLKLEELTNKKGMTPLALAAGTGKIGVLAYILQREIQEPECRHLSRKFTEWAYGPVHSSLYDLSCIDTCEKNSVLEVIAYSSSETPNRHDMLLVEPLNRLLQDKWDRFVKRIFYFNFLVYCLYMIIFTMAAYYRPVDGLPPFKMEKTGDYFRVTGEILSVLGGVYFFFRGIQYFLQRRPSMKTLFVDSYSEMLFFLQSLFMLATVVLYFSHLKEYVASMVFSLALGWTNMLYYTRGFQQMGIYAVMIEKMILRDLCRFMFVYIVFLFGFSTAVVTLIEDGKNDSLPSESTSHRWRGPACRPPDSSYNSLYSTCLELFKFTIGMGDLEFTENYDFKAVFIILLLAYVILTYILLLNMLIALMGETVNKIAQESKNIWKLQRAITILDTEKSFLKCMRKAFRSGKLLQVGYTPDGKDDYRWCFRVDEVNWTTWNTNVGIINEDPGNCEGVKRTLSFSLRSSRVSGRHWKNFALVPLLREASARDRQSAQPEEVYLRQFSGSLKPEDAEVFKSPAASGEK
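TRPV1-expressing cells were cultured overnight at 35.5C and loaded with Fluo-8 calcium dye for 40 to 90 min at room temperature. After a 10 s baseline, compound was added and calcium influx was read kinetically for 3 min (ex 480/em 520 nm).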
Menin MLL FP FL – qHTS Assay for Inhibitors Targeting the Menin-MLL Interaction in MLL Related Leukemias: Competition With Fluorescein Labeled MLL-derived Peptide. Fluorescence polarization, fluorescein-MLL peptide displacement from menin. FP activity change, % at 61.4 µM. AID 1766, 2009. 290,000 tested, under 10 active; inconclusive = falling polarisation curve, or a change in total fluorescence; inactive = total fluorescence flat and polarisation flat or rising; no compound was filed as active; the % refers to the polarisation; negative = inhibition;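 further: % of control where 0% means no effect; inhibitors lower the polarisation; unlabelled MLL peptide was the positive control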
TRPML1 agonist – qHTS for Agonists of the Human Mucolipin Transient Receptor Potential 1 (TRPML1); activation, % (test concentration not listed); Mucolipin-1 (Homo sapiens), Q9GZU1; AID 624414, 2012; 410,000 tested, 0.12% active; TRPML1-expressing cells, Ca2+ dye fluorescence, FDSS; host cell line not named in the record; reference of the full effect not given here; in the data active = activation above about 50%; inconclusive = about 30% to 50%; inactive = below about 30%; further: 0% is about no effect; the text of the record puts the active cut at 80%
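Tet-induced TRPML1-DL cells, 1,500 per well, cultured overnight, were loaded with a no-wash Ca2+ dye for 45–90 min. Calcium fluorescence was recorded on the FDSS for 110 s after compound addition, before the EC80 agonist (4 uM 54-4) was added.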
* marks the source's active call; other numbers are inactive results; ? = inconclusive; / = no result given; & = joins results of further samples; [ ] = another dose, or the depositor's remark.

SMILES	TRPML1 blocker	ClpP mod	Sfp PPTase inh	PINK1 modulator	TRPV1 potentiator	Menin MLL FP FL	TRPML1 agonist
COc1ccc(C2=NN(CC(=O)NCc3ccco3)C(=O)CC2)cc1	-6	?	-16%	0.9%	-2	1.8	0.0
CN(C)c1ccc(NC(=O)COC(=O)CCC(=O)c2ccc(F)cc2)cc1	12	0.2%	-15%	5.5%[38.3 µM]	-8	1.0	0.2
COc1cc(OC)nc(-n2ncc(Br)c(Br)c2=O)n1	-1	-2.6%	4%	-2.6%	-12	0.8	-0.3
CCCCN(C)C(=O)C1CCN(CCCc2ccccc2)CC1	-3	0.1%	8%	-1.0%	-3	2.3	-0.5
Cc1ccc(-c2nc3ccccc3n3nnnc23)cc1	3	12%	21%	10%	2	2.8	-0.3
COCOCCn1cc(CN2CCS(=O)(=O)N(Cc3ccc(-c4ccc(Cl)c(Cl)c4)cc3)C(C(C)C)C2=O)nn1 (stereo not drawn)	-6	-1.0%	/	13%	/	/	0.3
Cc1ccc(C)c(NC(=O)CSc2nnc(Cc3cccn3C)n2-c2ccc(F)cc2)c1	3	17%	-23%	-0.1%	-2	4.7	-0.1
CC(C)c1ccc(O)c(NC(=O)c2cccnc2)c1	-21	0.4%	-11%	12%[38.3 µM]	5	0.1	-0.4
COc1ccccc1C1NC(=O)NC(C)=C1C(=O)OC1CCC(C)CC1 (stereo not drawn)	-15	-1.2%	5%	2.2%	-5	-1.5	-0.3
Cc1ccccc1Cn1c2ccccc2c2cnn(CC(=O)NCCCN3CCOCC3)c(=O)c21	-8	3.9%	6%	-0.8%	7	1.0	-0.9
CCCN(CCC)S(=O)(=O)c1ccc(C(=O)NNc2nc(-c3ccccc3)c3cc(Br)ccc3n2)cc1	-5	1.6%	17%	-1.0%	12	14	-0.4
COc1ccc(N2CCN(c3ncnc4c3cnn4-c3ccc(F)cc3)CC2)cc1	-12	?	/	1.2%	/	/	-0.5
COC(=O)c1ccc(Nc2cc(C)nc3ccc(C)cc23)cc1	1	1.1%	4%	-1.6%	/	0.6	1.3
O=C(Nc1ccc(F)cc1)OCCN1CCN(Cc2ccccc2)CCC1=O	-7	1.3%	14%&-2%	2.5%	1	0.2&-0.6	-0.8
O=C1C(Cc2ccccc2)NC(=S)N1Cc1ccccc1 (stereo not drawn)	-4	-1.3%	14%	0.6%	-9	-0.4	-1.0
N/C(=N\OC(=O)CCC1CCCC1)c1ccccc1	-4	/	-1%	2.1%	-4	1.1	2.3
COc1ccc(-c2c(C#N)c(N)nc3c2CCCCCC3)cc1OC	0	?	1%	?	6	0.8	-0.8
COc1ccccc1CCNC(C)CCc1ccc(O)cc1 (stereo not drawn)	-14	-1.3%	7%	-0.8%	0	-2.2	0.7
COc1ccccc1NC(C)C(=O)N/N=C/c1ccccc1OCc1cccc(Br)c1 (stereo not drawn)	33	/	7%	1.1%	7	3.8	3.7
COc1ccccc1NC(=O)COC(=O)c1ccc2ccccc2n1	21	-6.1%	/	1.4%	/	/	1.2
Cc1nc2c(ccc3nc(NC(=O)Cc4cccc5ccccc45)sc32)s1	19	-14%	8%	2.8%	12	2.5	1.1
COc1ccc(NC(=O)C2(C)Cc3c(-c4ccc5c(c4)OCO5)ccnc3O2)cc1OC (stereo not drawn)	/	5.0%	/	6.3%	/	/	-1.1
O=C1NC[C@@H](CCCCN2C[C@H](Cc3ccccc3)N(CCc3ccc(O)cc3)C(=O)C2=O)N(CC2CCCCC2)C1=O	/	2.3%	/	1.0%	/	/	-0.2
CCOC(=O)N1CCN(C(=O)CCCN2C(=O)CSc3nc(C)cc(C)c32)CC1	-7	2.8%	0%	-0.7%	-1	-0.8	-0.4
CC(=O)Nc1ccc(CN(C)c2c(C)nc3ccc(C(=O)N(C)Cc4ccco4)cn23)cc1	/	-0.3%	/	4.6%	/	/	-0.5

Overlap with the part before: two entries, then new ones.
SMILES	TRPML1 blocker	ClpP mod	Sfp PPTase inh	PINK1 modulator	TRPV1 potentiator	Menin MLL FP FL	TRPML1 agonist
CCOC(=O)N1CCN(C(=O)CCCN2C(=O)CSc3nc(C)cc(C)c32)CC1	-7	2.8%	0%	-0.7%	-1	-0.8	-0.4
CC(=O)Nc1ccc(CN(C)c2c(C)nc3ccc(C(=O)N(C)Cc4ccco4)cn23)cc1	/	-0.3%	/	4.6%	/	/	-0.5
CC(=O)c1c(C)[nH]c(C(=O)CSc2nnc(C)s2)c1C	25	-0.6%	-20%	-0.2%	13	1.0	-1.5
CCOc1ccc(C2/C(=C(/O)c3ccc(S(=O)(=O)N4CCCCC4)cc3)C(=O)C(=O)N2CCCOC)cc1OC (stereo not drawn)	3	1.4%	-12%	1.1%	4	-1.3	-0.3
COc1ccc(N(C)C(=O)c2oc(=O)c3ccccc3c2-c2ccccc2)c(OC)c1	7	0.0%	8%	-0.2%	-9	9.7	1.5
Cc1nc2ccc(N=NN(C)C)cc2[nH]1	22	-2.0%	?	2.4%	0	3.5	4.4
O=c1[nH]c(Cc2ccccn2)nc2scc(-c3ccccc3Cl)c12	-5	/	-11%	?	4	?	-0.6
CC(C)C(NC(=O)CSCc1ccc([N+](=O)[O-])cc1)C(C)C	-11	0.9%	?	4.1%	13	-23	0.0
CCc1cccc(NC(=O)CCCCCC2NC(=O)NC2C)c1 (stereo not drawn)	0	/	20%	2.5%	-7	3.2	1.6
Cc1cccc(C)c1OCCCCN1CCNCC1	-10	/	-23%	3.0%	3	4.1	-0.5
CC(C)C(=O)Nc1nnc(S(=O)(=O)N(C)c2ccc(Cl)cc2)s1	-12	0.7%	21%	1.6%	7	-0.2	-1.6
Cc1ccc(/C=C/C(=O)Nc2ccc(Oc3ccccc3)cc2)o1	26	-1.3%	28µM*	1.9%	-10	11	1.6
CCOc1ccc(S(=O)(=O)N(CC(=O)Nc2ccc(OC)cc2OC)c2ccccc2)cc1	3	0.7%	/	2.9%	/	/	-0.9
O=C(N/N=C/c1cc(Br)ccc1O)C(=O)Nc1ccccc1OC(F)(F)C(F)F	6	0.9%	16%	3.2%[38.3 µM]	10	?	2.9
Cc1nc(N2CCN(S(=O)(=O)c3ccccc3C#N)CC2)c2c(-c3ccccc3)csc2n1	81	0.3%	/	1.5%	8	/	0.5
Cc1cc(C)cc(N(CC(=O)NC(C)(C)C)C(=O)CNC(=O)c2cccs2)c1	18	/	3%	0.4%	7	11	-0.4
COc1cc(C(=O)NCCc2ccc(S(=O)(=O)N3CCCC3)cc2)cc(OC)c1OC	26	2.3%	3%	2.5%	1	-8.7	3.9
CN(CC(=O)NC(=O)NC1CCCCC1)CC(=O)Nc1ccccc1C(F)(F)F	-11	0.8%	/	2.1%	/	/	-0.2
CC(C)(C)Nc1nc2cc([N+](=O)[O-])ccc2o1	-19	3.0%	9%	6.3%	15	6.0	1.6
CSc1cccc(NC(=O)CN2C(=O)c3ccccc3S2(=O)=O)c1	-7	0.4%	14%	0.7%	1	15	0.5
CCOC1(OCC)C(c2ccc(N)cc2)C(C#N)(C#N)C1(OCC)OCC (stereo not drawn)	26	0.5%	21%	-1.0%	-18	2.6	0.8
Cc1ccc(/C=C/S(=O)(=O)NCc2ccc(F)cc2)cc1	22	/	1%	3.9%	-26	-3.2	0.3
CCC(C(=O)NC1CC1)n1nc(C)c2c(C)n(-c3ccc(C)cc3)nc2c1=O (stereo not drawn)	-5	-4.0%	13%	-0.9%	4	1.7	0.3
Cc1occc1-c1nnc(SCC(=O)N2CCN(c3ccc(F)cc3)CC2)n1C	-9	0.1%	9%	0.9%	-5	-0.8	0.1
CCCS(=O)(=O)C(=C(Nc1ccc(OC)cc1)Nc1ccc(OC)cc1)S(=O)(=O)CCC	15	1.5%	-2%	-3.8%[38.3 µM]	3	1.8	0.6
Cc1ccc(Nc2nc3nonc3nc2Nc2cccc(C(F)(F)F)c2)cc1Cl	7	-2.7%	/	?	/	/	4.1
O=C(Cn1c(=O)nc(-c2ccccc2)c2ccccc21)Nc1ccc(Cl)cc1F	-11	-26%	/	?	/	/	-1.2
Further entries follow.
SMILES	TRPML1 blocker	ClpP mod	Sfp PPTase inh	PINK1 modulator	TRPV1 potentiator	Menin MLL FP FL	TRPML1 agonist
Cc1ccc(CN(C(=O)c2ccccc2[N+](=O)[O-])C2CCS(=O)(=O)C2)o1 (stereo not drawn)	2	0.5%	?	0.8%	3	/	-0.1
COc1ccc(N2C(=O)CC(C)(C)CC2=O)cc1OC	-12	0.7%	11%	-2.3%	-4	-0.7	-0.4
CC(C)C(=O)Nc1cc(C(F)(F)F)ccc1-n1ccnc1	-8	1.0%	0%	1.6%	-1	-3.5	0.4
Cn1c(/C(C#N)=C(\O)c2cccc(F)c2)nc2ccccc21	-20	-3.5%	-3%	2.8%	-1	-3.3	-0.1
O=C(CN1C(=O)NC2(CCOc3ccccc32)C1=O)NCCc1ccc(F)cc1 (stereo not drawn)	-4	0.3%	/	1.2%	/	/	-0.4
C=CCNC(=O)C(=O)c1c(-c2ccccc2)[nH]c2ccccc12	-11	-1.9%	5%	-0.1%	24	8.1	-0.3
COc1ccc(C2(C#N)CCC(=O)N2c2ccccc2)cc1 (stereo not drawn)	0	/	19%	0.9%	-6	1.2	-0.9
CC(OC(=O)[C@H](C)N=C1NS(=O)(=O)c2ccccc21)C(=O)Nc1ccc(F)c(F)c1F (stereo partly drawn)	6	-0.3%	/	1.1%	/	/	-0.9
COc1ccccc1CNC(=O)C1CCN(Cc2cc3ccccc3n2Cc2cccc(C)c2)CC1	18	-17%	/	1.8%	/	/	3.5
COc1ccc(C(=O)NC2CCN(C(=O)Nc3ccccc3Cl)CC2)cc1	-8	/	1%	-1.4%	12	-0.8	0.3

High-throughput results: PubChem, National Center for Advancing Translational Sciences (NCATS)
